Assay outcomes from PubChem BioAssay.
HPGD block = inhibitors of human 15-hydroxyprostaglandin dehydrogenase (HPGD); P15428; hit rate 4.3% among 150,000; purified HPGD, NADH fluorescence kinetic, PGE2 substrate; Potency, µM, inactives show top-dose activity change, negative = inhibition, hits mostly inhibitors; active = well fitted inhibition curve with a large enough effect (not every such curve was filed as active); inconclusive = small, poorly fitted or top-dose-only effect, or another doubt; inactive = no such curve, though single readings can be large or run the other way;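 further: top concentration of the series not given in the record; plate controls included wells without enzyme; inactives centre near -10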
Target sequence (P15428 whole entry, looked up): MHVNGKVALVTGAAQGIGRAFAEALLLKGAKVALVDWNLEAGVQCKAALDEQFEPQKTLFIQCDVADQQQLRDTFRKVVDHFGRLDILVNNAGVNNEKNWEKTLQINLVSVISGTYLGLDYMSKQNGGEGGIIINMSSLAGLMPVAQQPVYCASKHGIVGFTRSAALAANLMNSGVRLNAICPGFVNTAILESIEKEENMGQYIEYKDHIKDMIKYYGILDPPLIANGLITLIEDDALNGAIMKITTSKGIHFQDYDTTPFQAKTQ
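NADH formation kinetics: reaction with 30 uM PGE2 and 1 mM NAD+ (final), 20 nM enzyme, Tris-HCl pH 8 with Tween 20, after 15 min compound preincubation at room temperature. Fluorescence change, last versus first of five reads.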
The depositor's hits bear a star; ? = inconclusive; & = joins results of further samples. On the % scale 0 is the no-effect control and ±100 the full control effect; potency means the concentration at half of the fitted maximal effect. The list is partial; rates above refer to the full screens.

SMILES	HPGD block
COc1ccc(-c2ncncc2-c2csc(C)n2)c(O)c1	-9%
CCOC(=O)c1[nH]c(C)c(CN(CCc2ccccc2)S(C)(=O)=O)c1C	-3%
O=c1cc(O)c2c(=O)n(C3CCCCC3)c3ccccc3c2o1	-10%
CCOC(=O)C1CCN(C(=O)c2sc3nc(C)nc(N4CCC(C)CC4)c3c2C)CC1	-20%
Cc1ccccc1NC(=O)c1ccc2c(c1)C(=O)N(CCC(C)C)C2=O	-5%
CCOC(=O)C(CCCOc1cccc(OC)c1)C(=O)OCC	-7%
O=C(Nc1ccn(Cc2c(F)c(F)cc(F)c2F)n1)c1ccc(COc2ccc(Cl)cc2Cl)o1	?
COCCCN=C1NN=C(c2cc(C)n(-c3ccccc3)c2C)CS1	-16%
CCOC(=O)C1CCN(S(=O)(=O)Cc2ccccc2)CC1	-11%
Cn1c(SCC(=O)NCc2ccc3c(c2)OCO3)nc2scc(-c3cccs3)c2c1=O	-17%
CC(CCC(=O)O)C1CCC2C3CC[C@@H]4CCCC[C@@]4(C)C3CC[C@@]12C (stereo not given in full)	-7%
CC1(C)CC(=O)C(C=NCc2cccnc2)=C(O)C1	-14%
OC[C@H]1O[C@@H](n2cnc3c(NCc4ccccc4)ncnc32)[C@H](O)[C@@H]1O	-5%
CCCC/C(C)=N/NC(=O)NC1CCCCC1	-6%
Cc1noc(C)c1-c1nccc(NCc2cccnc2)n1	-9%
O=C(NN=C1CCCCCC1)c1c[nH]c2ccccc12	-6%
Cc1ccc2nc(N3CCN(S(=O)(=O)c4ccc5c(c4)OCCO5)CC3)c(C#N)cc2c1	?
Cc1ccc(NC(=O)c2ccccc2N(C)S(C)(=O)=O)cc1C	-7%
O=C(NCCOCc1ccc(Cl)cc1)c1ncn[nH]1	-5%
O=C(CSCc1c(Cl)cccc1Cl)NCc1ccco1	8.9µM*
COc1ccc(NC(=O)C(NC(C)=O)C(=O)NCc2ccccc2Cl)cc1 (stereo not given)	-16%
Nc1nc2c(ncn2C2OC(CO)CC2O)c(=O)[nH]1 (stereo not given)	-11%
Cc1ccc(NC(=O)COc2ccccc2CNC(C)(C)CC(C)(C)C)cc1	-11%
COc1cc(OC)cc(-c2ncc3ccccn23)c1	?
Cn1c(SCC(=O)NCC2CCCO2)nnc1-c1ccc(S(=O)(=O)N2CCCC2)cc1 (stereo not given)	-13%

Five of the compounds above, comma-delimited:
molecule,HPGD block
COCCCN=C1NN=C(c2cc(C)n(-c3ccccc3)c2C)CS1,-16%
Cn1c(SCC(=O)NCc2ccc3c(c2)OCO3)nc2scc(-c3cccs3)c2c1=O,-17%
O=C(NCCOCc1ccc(Cl)cc1)c1ncn[nH]1,-5%
Cn1c(SCC(=O)NCC2CCCO2)nnc1-c1ccc(S(=O)(=O)N2CCCC2)cc1 (stereo not given),-13%
COc1ccc(NC(=O)C(NC(C)=O)C(=O)NCc2ccccc2Cl)cc1 (stereo not given),-16%

(continued)
SMILES	HPGD block
COC(=O)c1cccc(S(=O)(=O)N2CCC(C)CC2)c1	-4%
COc1ccc(C(=O)Nc2ccc(Cl)cc2C(=O)NCCN2CCOCC2)cc1	-12%
COc1ccc(-n2c(C)nc3cc(C(=O)NCCN4CCOCC4)ccc32)cc1	-5%
CCOC(=O)c1oc2ccccc2c1NC(=O)c1ccc(Cl)s1	-20%
Cc1ccc(NC(=O)C(C)c2cccc(C(=O)c3ccccc3)c2)cc1O (stereo not given)	-14%
CCOC(=O)C1=C(O)C(Nc2nc3ccccc3s2)(C(F)(F)F)N=C1C (stereo not given)	-4%
Cc1cc(C)cc(NC(=O)C(OC(=O)c2ccc([N+](=O)[O-])o2)c2ccccc2)c1 (stereo not given)	-8%
CCOC(=O)C1=C(CP(=O)(c2ccccc2)c2ccccc2)NC(=O)NC1c1ccc(OC)cc1 (stereo not given)	-1%
Cc1cccc(C(=O)O)c1	-6%
O=C(c1ccc(S(=O)(=O)N2CCOCC2)cc1)N1CCc2ccccc2C1	?
O=C(O)CCCC(=O)NCc1ccccn1	-1%
CC(C(=O)O)C1CCC2C3CC=C4CC(O)CC[C@@]4(C)C3CC[C@]12C (stereo not given in full)	2%
[O-]/C(=C(\C(=S)Nc1cccc2ccccc12)[n+]1ccccc1)c1ccc2c(c1)OCCO2	?
CC[C@H]1C2=C3C(CC[C@H]4C(OCc5ccc(F)cc5C(F)(F)F)OC[C@](C)([C@@H]34)N(C(=O)OC(C)(C)C)C2)C(COC)C1COC (stereo not given in full)	-6%
COc1cccc(C(=O)CC2c3c(c(Br)c4c(c3OC)OCO4)CCN2C)c1 (stereo not given)	?
Cc1ccccc1OCC(=O)OC(C)CN1CCN(C)CC1 (stereo not given)	-6%
c1ccc(Cn2nnnc2C(c2cccs2)N2CCc3ccccc3C2)cc1 (stereo not given)	-12%
COC(=O)c1ccc(S(=O)(=O)N2C3CCC2CC(NC(=O)NC2CCCCC2)C3)cc1 (stereo not given)	-3%
CCCCOC(=O)Nc1nnc(SCCOc2ccc(C)cc2)s1	-9%
COC(=O)c1ccc(C(NC(=O)OCc2ccccc2)/C(F)=C/[C@@H](C)C(=O)NCCc2c[nH]c3ccc(OC)cc23)cc1 (stereo not given in full)	-13%
Clc1ccc2nc(N3CCCCC3)sc2c1	-16%
CCCCCOC(=O)CSc1n[nH]c(=O)[nH]c1=O	-6%
N#Cc1ccccc1NC(=O)CSc1nnc(-c2ccccc2)n1-c1ccccc1	-4%
O=C(Nc1ccc(N2CCOCC2)cc1)c1cccc(S(=O)(=O)N2CCC(Cc3ccccc3)CC2)c1	-20%
CN(C)C1NC(=O)c2cc(-c3ccccc3)sc2N1 (stereo not given)	?

Compounds shown so far containing a tert-butyl group:
SMILES	HPGD block
Cc1ccc(NC(=O)COc2ccccc2CNC(C)(C)CC(C)(C)C)cc1	-11%
CC[C@H]1C2=C3C(CC[C@H]4C(OCc5ccc(F)cc5C(F)(F)F)OC[C@](C)([C@@H]34)N(C(=O)OC(C)(C)C)C2)C(COC)C1COC (stereo not given in full)	-6%

(listing goes on)
SMILES	HPGD block
O=C(CSc1nncs1)Nc1cc(-c2ccccc2)nn1-c1ccccc1	-4%
CS(=O)(=O)Nc1ccc(C2=NN(C(=O)C3CCCCC3)C(c3cccs3)C2)cc1 (stereo not given)	?
CC(C)Cc1nc2sc3c(=O)n(N)cnc3c2c2c1COC(C)(C)C2	-16%
COC(=O)c1ccc(NC(C)=O)o1	-4%
O=C(/C(=C\c1ccccc1)c1nc2ccccc2[nH]1)c1ccc(Cl)cc1	-8%
COc1ccc(O)c(C(=O)CC(=O)c2ccc(F)cc2)c1	-29%
NC(=O)c1c(-c2ccc(Cl)cc2Cl)csc1NC(=O)Cc1ccccc1	-15%
CCOC(=O)c1sc2nc(-c3ccco3)c3c(c2c1N)CC(C)(C)OC3	?
COc1ccccc1CNn1c(-c2cccc(C)c2)nc2ccccc2c1=O	?
CCOC(=O)C(C)Sc1ncc(OC)c(=O)[nH]1 (stereo not given)	-5%
COc1cc(/C=N/NC(=O)c2cccnc2)ccc1OCC(=O)Nc1ccc(C)cc1	?
CC(C)(C)NC(=O)COc1ccc(CNCc2cccs2)cc1	-11%
O=C(c1ccc(Cl)s1)N1CCOCC1	-24%
CCOC(=O)c1ccc(NC(=O)C(CC)(CC)C(=O)OCC)cc1	-5%
CCOc1cc(C(=O)NCCOC)cc(OCC)c1OCC	-7%
COC(=O)c1cn(C(=O)c2ccc(Br)o2)c2ccccc12	-5%
Cc1nc(N2CCCC2)c2nnn(Cc3ccccc3Cl)c2n1	-3%
Cn1c(NCCCO)nc2ccccc21	1%
c1ccc(N2CCN(c3ncnc4sc5c(c34)CCC5)CC2)cc1	-20%
Oc1ccccc1N=Cc1sc2ccccc2c1Cl	-10%
O=C(Oc1ccc(N(Cc2cccs2)C2=NS(=O)(=O)c3ccccc32)cc1)c1ccccc1F	-22%
Cc1csc(SCCn2c(N3CCN(c4ccccc4)CC3)nc3c2c(=O)[nH]c(=O)n3C)n1	-14%
CCc1nc(Sc2nnnn2-c2ccccc2)c2c3c(sc2n1)CCCC3	-15%
CCn1c(=O)cc(SCC(=O)NCc2ccc(C)cc2)c2ccccc21	?
COc1ccc(/C=c2/sc3n(c2=O)C(c2ccccc2OC)C2=C(N=3)c3ccccc3CC2)cc1O (stereo not given)	-14%

Part of the list above, as comma-separated lines:
SMILES,HPGD block
CCCC/C(C)=N/NC(=O)NC1CCCCC1,-6%
Cc1noc(C)c1-c1nccc(NCc2cccnc2)n1,-9%

(list continues)
SMILES	HPGD block
Cc1ccc(NC(=S)N(CCCN2CCOCC2)Cc2ccccn2)cc1	-6%
Cc1nc(CCN2C(=O)c3ccccc3C2=O)cs1	-6%
Oc1c(C(c2ccco2)N2CCC3(CC2)OCCO3)sc2ncnn12 (stereo not given)	-17%
COc1ncc2nc(CCc3ccccc3)c(=O)n(C)c2n1	-18%
CC(C)(C)NC(=O)COC(=O)c1ccc(O)cc1	-13%
Cc1cccc(OCCCC(=O)NCCc2ccccc2)c1	?
O=C(Nc1nc(-c2ccc3ccccc3c2)cs1)C1CCN(S(=O)(=O)c2cccs2)CC1	-9%
CCC(=O)N1CCN(c2ccccc2NC(=O)COc2cccc(C)c2)CC1	5%
CC1CN(C(=O)CN2C(=O)NC(C)(c3ccccc3)C2=O)CC(C)O1 (stereo not given)	-7%
CC(C)NC(=O)[C@H]1C[C@@H]1[C@H](NC(=O)OCc1ccccc1)c1ccccc1	-9%
Cc1cc(C)c2nc(NC(=O)c3cccc(S(=O)(=O)N4CCc5ccccc54)c3)sc2c1	?
CCc1ccc(CNn2cnnc2SCC(=O)NC(C)(C)C)cc1	-3%
CCN(CC)c1cc(C(F)(F)F)nc(-c2ccccn2)n1	-7%
Cc1ccc(NC(=O)Nc2sc(=S)n(C)c2C)cc1	-18%
CCOCc1nnc(NC(=O)CCc2ccccc2)s1	3%
CC(C)(N=NC(C)(C)C(=N)N)C(=N)N	-8%&-29%
Cc1nnc(NC(=O)c2cccc(Br)c2)s1	-7%
CCCc1cc(=O)[nH]c(SCC(=O)N(CC)Cc2ccccc2)n1	-11%
CCOc1ccccc1Nc1nnc(SCC(=O)N2CCCC2)s1	-11%
CCc1nnc(NC(=O)CSc2nc3cc4c(cc3cc2C)OCCO4)s1	-2%
CCN(CC)S(=O)(=O)c1cc(C(=O)Nc2cc(Cl)ccc2N2CCN(C)CC2)ccc1Cl	-16%
Cc1cc(C(=O)CSc2nnc(-c3ccccc3)n2Cc2ccc3c(c2)OCO3)c(C)n1C	-10%
N#CC1=C(N)N(c2ccccc2Sc2ccccc2)C(=O)C1	-9%
O=C(CCC(=O)Nc1ccc(Cl)cc1Cl)NNC(=O)[C@@H]1CCCC[C@@H]1C(=O)O	0%
Cc1ccccc1NC(=O)COC(=O)CNC(=O)c1sc2ccccc2c1Cl	-4%
(listing goes on)
SMILES	HPGD block
COc1ccc(-n2nc(C(=O)NCC(=O)N3CCN(c4ccccn4)CC3)c3ccccc3c2=O)cc1	?
CCOc1nc(-c2ccc(C)cc2)ccc1-c1noc(-c2cccnc2)n1	?
CC(=O)Nc1cccc(NC(=O)c2sc3ncn(CC(=O)N4CCCCC4)c(=O)c3c2C)c1	-27%
Cc1nc(SCC(N)=O)[nH]c(=O)c1Cc1ccc(OC(C)C)cc1	-18%
NNC(=O)c1ccc(Cl)cc1Cl	-16%
O=C(Cn1cnc2ccccc21)N/N=C/c1ccc([N+](=O)[O-])cc1	-22%
CCc1ccc(C(=O)c2cncc(Br)c2)cc1	-14%
Cc1ccc(S(=O)(=O)Cc2cn3cccnc3n2)cc1	?
O=C(Nc1cccc(Cl)c1)NC1(C(=O)NCc2cccs2)CCCCC1	-11%
COc1cc2c(c(OC)c1)C(c1cccc(OC)c1OC)CC(=O)N2 (stereo not given)	-6%
CCC(C)(C)n1nnnc1C(c1cc2cc(C)cc(C)c2[nH]c1=O)N1CCCC1 (stereo not given)	-18%
COc1ccc(N(C)S(=O)(=O)c2cccc(C(=O)OCC(=O)Nc3sc4c(c3C#N)CCCCC4)c2)cc1	-9%
COc1ccc(-c2c3c(nc4sc5c(=O)[nH]c(C)nc5c24)CCC3)cc1	?
O=C(Nc1ccc2oc(-c3cccnc3)nc2c1)c1cc2ccccc2o1	-28%
O=C(Nc1ccc2c(c1)OCCO2)C(c1ccc(F)cc1)N1CCCCC1 (stereo not given)	-11%
C=C(C)COc1ccc2c(CC)cc(=O)oc2c1C	?
O=C1/C(=C\Nc2ccccc2)CCN1c1ncccn1	-15%
Cc1noc(C(=O)Nc2cccnc2)c1Cl	-5%
Cc1cccc(C2(c3cccc(C)c3)CC2C(=O)Nc2ccc([N+](=O)[O-])cc2O)c1 (stereo not given)	18µM*
CC1CCN(CCC(=O)N2CCCc3c2c(=O)oc2ccc(O)cc32)CC1	-1%
COC(=O)C1=C(C)N(c2cc(Cl)cc(Cl)c2)C(=O)C1	-3%
O=C(NCCCn1ccnc1)c1csc2ccccc12	3%
O=C1NC(c2ccc3c(c2)OCO3)Oc2ccccc21 (stereo not given)	-15%
COC(=O)c1c(N)c(C#N)c(C)n1-c1ccccc1	-5%
O=C(CSc1nnc(CCCN2C(=O)c3cccc4cccc(c34)C2=O)n1-c1ccccc1)N1CCN(CCO)CC1	?
Further records:
SMILES	HPGD block
C/C(=N\N=C(/N)SC1CC(=O)N(c2ccc(Br)cc2)C1=O)c1cccs1 (stereo not given)	-3%
Cc1cc(-c2cccs2)c2c(N)c(C(=O)c3ccc4c(c3)OCO4)sc2n1	-20%
O=S(=O)(NCC(c1cccnc1)N1CCN(c2ccccc2)CC1)c1cc(F)ccc1F (stereo not given)	3%
CNC(=O)C1CCC(=O)N1Cc1ccccc1Cl (stereo not given)	-9%
COc1ccc(F)cc1S(=O)(=O)NCc1ccccc1	-1%
O=C(CNC(=O)c1ccco1)NCC(=O)OCc1ccc(C(=O)Oc2ccc(Cl)cc2)cc1	-11%
CC1CC(Nc2ccccc2)=NC1(C)C (stereo not given)	-11%
C[C@@H]1C=C[C@](Cc2ccccc2)(C(=O)NCC2CC2)N1C(=O)c1ccccc1	-14%&-1%
